# Source: PubChem (Fisher Drug Discovery Resource Center)
# NPYLR7 ag = agonists of mosquito NPYLR7 receptor, primary screen, cell-based, Aedes aegypti, calcium fluorescence, mosquito biting behavior | Aedes aegypti neuropeptide Y-like receptor 7 (NPYLR7) | HEK293T NPYLR7/Galpha15, GCaMP6s calcium fluorescence | activation, % at 10 µM | actives 0.15% (n = 270,000) | AID 1259423, 2018; in the data active = activation above about 40%;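 also: 0% = vehicle and 100% = reference agonist at the receptor; some compounds past the cut are filed as inactive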
# NPYLR7 ag max-min = also measured in NPYLR7 ag; calls as there; activation, %; measured here: Max-Min RFU normalised activation; some inactives read as strong as hits;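 span of the calcium signal over five minutes; 0% = vehicle and 100% = native peptide agonist; compound fluorescence can raise it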
# * hit, by the source's call; & = joins results of further samples. A portion of the library; the hit share may differ from the screen's.
# Below each SMILES: NPYLR7 ag, NPYLR7 ag max-min
> Cc1ccc(NC(=O)C2CCc3ccccc3N2C(=O)C2CCCO2)cc1 (stereo not drawn)
→ -9&4, -9&3
> CCc1nc2ccc(C(=O)NC(C)(C)C)cn2c1N(CC)C(=O)NCCc1ccccc1
→ -2, -10
> CC(C)C1CN(Cc2cc(-c3ccccn3)no2)CCCN1CC1CC1 (stereo not drawn)
→ -3, -3
> Cc1nc2ccc(C(=O)NCCCN(C)C)cn2c1N(C)C(=O)CCc1ccccc1
→ 10, 12
> CS(=O)c1c(Cl)cccc1NC(=O)N1CCN(c2ncc(Cl)cc2Cl)CC1 (stereo not drawn)
→ 1, -1
> CC(C)OCCCNc1ncc2c(n1)CC(c1cccc(Cl)c1)CC2=O (stereo not drawn)
→ 9, 6
> COc1ccc(-n2nnc3c(SCC(=O)Nc4ccccc4)ncnc32)cc1
→ 20, 19
> COC(=O)CCCN(C)C(=O)c1ccc(CNC(C)=O)cc1
→ 4, 1
> Cc1cccc(NC(=O)CC2CSc3nc(C(C)C)cc(=O)n32)c1C (stereo not drawn)
→ -2, -3
> CC(C)Oc1ccc(C(=O)N2CC(=O)Nc3ccc(Cl)cc3C2c2ccc(F)cc2)cc1 (stereo not drawn)
→ 1, 0

# Taken from the listing, 7 compounds:
# Below each SMILES: NPYLR7 ag, NPYLR7 ag max-min
> Cc1nc2ccc(C(=O)NCCCN(C)C)cn2c1N(C)C(=O)CCc1ccccc1
→ 10, 12
> CS(=O)c1c(Cl)cccc1NC(=O)N1CCN(c2ncc(Cl)cc2Cl)CC1 (stereo not drawn)
→ 1, -1
> CC(C)OCCCNc1ncc2c(n1)CC(c1cccc(Cl)c1)CC2=O (stereo not drawn)
→ 9, 6
> COc1ccc(-n2nnc3c(SCC(=O)Nc4ccccc4)ncnc32)cc1
→ 20, 19
> COC(=O)CCCN(C)C(=O)c1ccc(CNC(C)=O)cc1
→ 4, 1
> Cc1cccc(NC(=O)CC2CSc3nc(C(C)C)cc(=O)n32)c1C (stereo not drawn)
→ -2, -3
> CC(C)Oc1ccc(C(=O)N2CC(=O)Nc3ccc(Cl)cc3C2c2ccc(F)cc2)cc1 (stereo not drawn)
→ 1, 0

# Carrying on:
# Below each SMILES: NPYLR7 ag, NPYLR7 ag max-min
> O=C(c1ccc(F)cc1)N1CCCC(OCc2ccc(F)c(F)c2)C1 (stereo not drawn)
→ -2, 2
> O=C(CSCC(=O)Nc1ccc(F)cc1)NOC1CCCCO1 (stereo not drawn)
→ 4, 3
> Cc1cc(C(F)(F)F)nc(CCNC(=O)c2ccc(Cl)cn2)n1
→ 7, 6
> Cc1nc(SCC#N)c2oc3ccccc3c2n1
→ 4, 0
> COc1ccc(-c2csc(=Nc3ccccc3OC)n2NC(=O)C(C)Oc2ccc(Cl)cc2C)cc1 (stereo not drawn)
→ -9, -16
> COc1cc(OC)cc(C(=O)Nc2ccc3nc(C)n(-c4ccc(F)cc4)c(=O)c3c2)c1
→ -8, -8
> Cc1ccc(S(=O)(=O)N2CCCC(C(=O)Nc3ccc(C)c(C)c3)C2)cc1 (stereo not drawn)
→ -8, -13
> O=C(Cc1ccccc1F)NOCc1ccccc1
→ 10, 7
> Cc1ccccc1Cn1nc(-c2cccs2)c2sc(N3CCCCC3)nc2c1=O
→ -4, -9
> Cc1ccc(Cn2nc(-c3cccc(Br)c3)ccc2=O)cc1
→ 11, 10
> CCOC(=O)C1(Cc2ccc(F)cc2F)CCCN(S(=O)(=O)c2c(C)noc2C)C1 (stereo not drawn)
→ 11, 6
> CC(C)CN1C(=O)/C(=C/c2ccc3c(c2)OCCO3)N(C)C1=S
→ 5, 2
> Cc1cc2ncn(CC(C)C)c2cc1C
→ 1, 7
> O=C(Nc1ccc2c(c1)CCC2)NC1CCN(C2CC2)CC1
→ -1, 0
> CCCN(CCc1c[nH]c2ccc(NC(=O)c3cc(OC)cc(OC)c3)cc12)CC1CC1
→ 5, -9
> Cc1ccc(-c2cc(C(F)(F)F)n3ncc(C(N)=O)c3n2)cc1
→ -4, -10
> COC(=O)C1=C(C)NC2=C(C(=O)CC(c3ccccc3)C2)C1c1ccc(OC(C)=O)c(OC)c1 (stereo not drawn)
→ 2, 7
> Cc1noc(C(C)Sc2nnnn2CCN(C)C)n1 (stereo not drawn)
→ -1, -5
> O=C(COc1coc(CN2CCc3ccccc3C2)cc1=O)Nc1ccc([N+](=O)[O-])cc1
→ 2, 0
> CC(C)(C)c1ccccc1S(=O)(=O)N1CCOCC1C#N (stereo not drawn)
→ 1, 4
> Cc1cc(C(=O)N(CCN(C)C)c2nc3ccccc3s2)nn1C
→ 12, 9
> Cc1ccc(Cl)c(NC(=O)CN2CCN(S(=O)(=O)c3ccc4c(c3)CCC4)CC2)c1Cl
→ 8, 7
> CC(=O)c1cccc(-c2cccc(C)n2)c1
→ -7, -8
> Cc1sc2ncnc(N(C)CC(=O)NC3CC3)c2c1C
→ 8, 7
> COCCCNC(=O)c1cc(NC(=O)c2ccc(C(F)(F)F)cc2)ccc1N1CCN(c2ccccc2OC)CC1
→ 11, 8
> CCOC(=O)c1c(C)c(C(=O)CN(Cc2ccco2)S(=O)(=O)c2ccc(NC(C)=O)cc2)c(C)n1CC
→ 13, 22
> Cc1ccc(C)c(-c2nn(C(C)C(=O)NC3CC3)c(=O)c3ccccc23)c1 (stereo not drawn)
→ 0, -1
> CCOC(=O)c1sc(NC(=O)/C=C/c2ccccc2)nc1C
→ -5, -9
> CCc1cc2c(N(Cc3ccc(C(=O)NC)cc3)C3CC3)ncnc2s1
→ 10, 7
> O=c1c(-c2ccccc2)[n+]([O-])c2ccccc2n1OCc1ccccc1Cl
→ -5, -5
> COc1ccc(S(=O)(=O)N2CCOCC2)cc1N1CCN(S(=O)(=O)c2ccc(Br)cc2)CC1
→ 9, 6
> CN(Cc1ccc(-n2cccn2)cc1)Cc1ccc(-c2ccn[nH]2)s1
→ 11, 8
> CC(C)(C)OC(=O)NN=Cc1ccc(N2CCOCC2)s1
→ 3, 1
> COc1ccc(C2SCCN2S(C)(=O)=O)cc1Br (stereo not drawn)
→ 5, 1
> Cc1ccc(C)c(S(=O)(=O)NCCCn2nc(-c3ccco3)ccc2=O)c1
→ -6, -7
> CC(Oc1ccc(Br)cc1)C(=O)NC(c1ccccc1)c1nccn1C (stereo not drawn)
→ 0, 32
> O=C(CN1CCN(Cc2nc3ccccc3s2)CC1)NCCC1=CCCCC1
→ 10, 3
> O=C(CCN(Cc1ccco1)c1nc(-c2cccs2)nc2ccccc12)NCc1cccc(C(F)(F)F)c1
→ 6, 8
> CCCn1c(N)c(-c2csc(Cc3nnc4n3CCCCC4)n2)c(=O)n(C)c1=O
→ 7, 5
> O=C(NCCC(=O)N1CCc2ccccc21)c1ccco1
→ 8, 8
> Cc1cccc(C)c1N1c2c([nH][nH]c2=O)-c2ccccc2S1(=O)=O
→ 3, 6
> O=C(Nc1nnc(-c2cccc(Cl)c2)s1)C1CCCN1C(=O)c1ccc(Br)cc1 (stereo not drawn)
→ 15, 17
> Cc1cc2oc(=O)cc(-c3cc4ccccc4o3)c2cc1OC(=O)N1CCOCC1
→ -1, -4
> Cc1nn(Cc2ccccc2Cl)c(Cl)c1C(=O)NCCc1ccccn1
→ 18, 18
> Cc1ccc(NC(=O)Cn2nc(C3CCCN(S(C)(=O)=O)C3)n(C)c2=O)cc1Cl (stereo not drawn)
→ -4, 2
> CCOc1ccc(C(C2Sc3nc(C)nn3C2=O)N2CCCC(C)C2)cc1OC (stereo not drawn)
→ 0, 0
> CCOC(=O)C1CCCN(C(=O)c2c(C(C)C)nn(-c3cccc(C)c3)c2C(C)C)C1 (stereo not drawn)
→ 10, 11
> c1cnc(NC2CCN(c3nc(-c4ccncc4)nc4c3CNC4)CC2)nc1
→ 3, 0
> CCOC(=O)c1c(C)[nH]c(C(=O)COC(=O)c2cccn2C)c1C
→ -2, -3
> O=C(O)CN(CCN(CC(=O)O)CC(=O)O)CCN(CC(=O)O)CC(=O)O
→ 0&-1, -6&-15

# Additional results:
# Below each SMILES: NPYLR7 ag, NPYLR7 ag max-min
> CCCCCCN(CCN1CCOCC1)C(=O)Nc1cc(C)on1
→ 3, 0
> CC(C)(C)C(=O)Nc1nc2ccc(S(C)(=O)=O)cc2s1
→ 10, 6
> COc1ccc(-c2noc(CSc3nnc(-c4nccc5ccccc45)o3)n2)cc1
→ -5, -11
> COc1cccc(-c2cc(C(=O)NC3CCCCNC3=O)nc3cc(-c4ccccc4)nn23)c1 (stereo not drawn)
→ -8, 9
> Cc1cccn2c(CN(C)CC3Cc4ccccc4O3)c(C(=O)N3CCCCC3)nc12 (stereo not drawn)
→ 4, 9
> C[n+]1cc(-c2ccc3ccccc3n2)cc2ccccc21
→ -1, 5
> COCCn1cc2c(c1-c1ccccc1)c(=O)n(C)c(=O)n2C
→ 17, 10
> CCOC(=O)c1cc(-c2cccc(NC(=O)c3ccc(OC)cc3OC)c2)n(-c2ccccc2OC)n1
→ 28, 17
> CCC(C)N(Cc1ccc2c(c1)OCO2)Cc1nc(C(=O)NCc2ccncc2)co1 (stereo not drawn)
→ 2, 10
> CCn1c(=O)c(C(=O)NCC2CCCO2)nn(-c2cccc(C)c2)c1=O (stereo not drawn)
→ -4, -1
> O=S(=O)(Nc1nc2ccccc2nc1Cl)c1cccc(C(F)(F)F)c1
→ 11, 8
> COc1cccc(Cc2nc3c(c(N4CCOCC4)n2)CN(C(=O)Nc2ccc(SC)cc2)CC3)c1
→ 11, 13
> O=C(Cc1cccc(F)c1)N1CCOC(COc2ccc(F)cc2)C1 (stereo not drawn)
→ 6, -1
> COc1ccc(CN(Cc2ccco2)S(=O)(=O)c2ccc(C)cc2)cc1OS(=O)(=O)c1cccc(C(F)(F)F)c1
→ 26, 32
> O=C(CSc1ccccn1)N1CCOC(CCCc2ccccc2)C1 (stereo not drawn)
→ 8, 7
> CC(CN1CCOC1=O)NC(=O)c1csc(-c2ccc(C(C)C)cc2)n1 (stereo not drawn)
→ -3, -4
> Cc1cccc(C(=O)N2CCCC(C(=O)Nc3cccc(-c4ccc(F)cc4)c3)C2)n1 (stereo not drawn)
→ 4, 2
> CN(C)CCCNc1nn2c(=O)c3ccccc3nc2c2ccccc12
→ 1, -1
> CC1(C)C(c2ccccc2)=[N+]([O-])C2(CCCCC/C2=N/NC(N)=O)N1O (stereo not drawn)
→ -10, -19
> COc1ccc(CN(CC(O)COCc2ccccc2)C2CC2)cc1 (stereo not drawn)
→ 28, 19
> COc1ccc(C(CNC(=O)CCc2c(C)noc2C)N2CCCCC2)cc1 (stereo not drawn)
→ 3, 26
> CC(C1CC1)N(Cc1ccccc1)C(=O)CSc1nc(C2CC2)nc2c1c(=O)[nH]c(=O)n2C1CC1 (stereo not drawn)
→ 3, 11
> COc1ccc(Cn2c(Cc3ccncc3)n[nH]c2=O)cc1
→ 1, -1
> Cc1nc(SCC(=O)NC2CC2)c2c(C)c(C)sc2n1
→ -1, -2
> CC1CN(c2cc(C(F)(F)F)nc3ncnn23)C(c2ccccc2)CO1 (stereo not drawn)
→ 11, 15
> O=C1CCc2cc(S(=O)(=O)NC3CCSc4ccccc43)ccc2N1 (stereo not drawn)
→ 11, 13
> Cc1ccc(Nc2nc(NCC3CCCO3)nc(N)c2[N+](=O)[O-])cc1 (stereo not drawn)
→ 4, 12
> CC1=NN(CCCc2ccccc2)c2nc3c(c(=O)n(C)c(=O)n3C)n2C1C (stereo not drawn)
→ -12, -12
> Cc1c(NC(=O)c2c([N+](=O)[O-])cnn2C)c(=O)n(-c2ccccc2)n1C
→ 1, -5
> CCCCCCc1cc2cc(-c3nnc(-c4ccc(C)cc4)o3)c(=O)oc2cc1O
→ 4, -5
> CC(c1cccs1)N(C)CC(=O)Nc1ccc(F)cc1Cl (stereo not drawn)
→ 0, 1
> O=C(/C=C/c1ccccc1)NCC1CC(Cc2ccc(F)cc2)=NO1 (stereo not drawn)
→ 19, 4
> COc1ccc(C=CC(=O)c2ccc(N3CCOCC3)cc2)c(OC)c1OC
→ 3, 3
> CC(C)CCn1cnc(-c2ccccc2)c1-c1cnc[nH]1
→ -2, -8
> CCCCCCCCCCOc1ccc(C2=N/C(=C\c3cccs3)C(=O)O2)cc1
→ 13, 14
> CC(C)c1ccc(C=c2sc(=CC(=O)C(C)(C)C)[nH]c2=O)cc1
→ 1, -2
> Cc1ccc(N=Cc2nc(-c3ccc(Cl)cc3)oc2O)cc1Cl
→ 0, 5
> COc1ccccc1OCC(=O)N1CCCC(Nc2cccc(F)c2)C1 (stereo not drawn)
→ -5, -7
> CCN1C(=O)C2(SC(C)(C)CN2C(=O)c2ccc(OC)cc2)c2cc(F)ccc21 (stereo not drawn)
→ 1, 5
> COc1cc(C)c(S(=O)(=O)Oc2cc(C)ccc2C(N)=O)cc1OC
→ 6, 3
> CN(C/C=C/c1ccccc1)Cc1ncccc1C(=O)O
→ -5, -9
> COc1ccccc1-c1nc(Cn2nnc(C(=O)Nc3cc(C)ccc3C)c2C)c(C)o1
→ 6, 1
> CN(C)S(=O)(=O)c1ccc(C(=O)NCc2n[nH]c(=S)n2-c2cccc(Cl)c2)cc1
→ -2, -4
> CSc1nc(C(=O)N2CCc3onc(-c4ccc(Cl)cc4)c3C2)cs1
→ 5, 5
> COc1ccc(C(=O)N2C(C(=O)NCc3ccco3)COC23CCN(C(=O)c2cccc(Cl)c2)CC3)cc1 (stereo not drawn)
→ 2, 10
> Cc1ccc(C)c(C(=O)N2CCOC(CCCC(C)C)C2)c1 (stereo not drawn)
→ 12, -7
> O=[N+]([O-])c1cccc(C=NNc2ncnc3sc4c(c23)CCCC4)c1
→ 9, 3
> COc1cccc(C(=O)NC(C(=O)NCc2ccco2)C2CCN(C(=O)C3CCCC3)CC2)c1 (stereo not drawn)
→ 5, 4
> Cc1cc(C)nc(NN=Cc2ccsc2)n1
→ 1, -2
> NC(N)=NC(N)=Nc1ccc(F)c(Cl)c1
→ 2, 2
> NC(=O)CSc1nnc(SCc2ccc(Cl)c(Cl)c2)s1
→ 5, 4
